Source: PubChem BioAssay
VDR inhibitor: Inhibitors of the vitamin D receptor (VDR): qHTS. VDR-SRC2-3 peptide fluorescence polarization, 2 h. Potency, µM, inactives show max response, negative = inhibition, most hits filed as inhibitors. hit rate 0.93% among 400,000; active means well fitted inhibition curve with a large enough effect; inconclusive means small, poorly fitted or top-dose-only effect, or another doubt; inactive means no such curve, though single readings can be large or run the other way; further: series mostly up to about 120 µM
Target sequence (P11473 whole entry, looked up): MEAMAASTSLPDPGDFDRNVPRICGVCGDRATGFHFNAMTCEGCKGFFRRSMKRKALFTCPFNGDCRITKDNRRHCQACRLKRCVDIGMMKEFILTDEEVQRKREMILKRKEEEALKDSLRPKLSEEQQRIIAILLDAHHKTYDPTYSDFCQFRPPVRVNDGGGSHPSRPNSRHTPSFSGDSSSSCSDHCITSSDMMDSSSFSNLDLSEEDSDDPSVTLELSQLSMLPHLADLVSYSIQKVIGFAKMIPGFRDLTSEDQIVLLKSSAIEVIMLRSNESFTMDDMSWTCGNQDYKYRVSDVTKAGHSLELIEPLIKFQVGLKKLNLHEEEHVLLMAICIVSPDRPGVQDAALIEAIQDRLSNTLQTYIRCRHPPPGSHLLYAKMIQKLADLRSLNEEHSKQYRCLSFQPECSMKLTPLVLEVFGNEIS
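Two reagent solutions held at 4 deg C in the dark were dispensed, compounds pinned at 23 nl, and the mixture incubated 2 h at room temperature. Read-out: fluorescence polarization of VDR–SRC2-3 peptide binding.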
An asterisk follows results filed as active; ? = inconclusive; & = joins results of further samples. On the % scale 0 is the no-effect control and ±100 the full control effect; potency means the concentration at half of the fitted maximal effect.

smiles	VDR inhibitor
COc1ccc(-c2noc(CSc3nnc(-c4ccncc4)n3-c3ccc(C)cc3)n2)cc1OC	11%
CCNS(=O)(=O)c1ccc(CCC(=O)Nc2ccc3c(c2)OCO3)cc1	13%
Cc1c(C(=O)N2CCN(c3ccccn3)CC2)oc2c1C(=O)CC(C)(C)C2	-23%
COC(=O)c1ccccc1NC(=O)COC(=O)[C@H](C)NC(N)=O	14%
COc1cccc(N(CC(=O)Nc2ccccc2C(=O)N2CCCC2)S(C)(=O)=O)c1	0%
CCSc1nc(N2CCOCC2)c2c(c1C#N)CCCC2	3%
CCN1CCN(C(=S)NC(C)c2ccccc2)CC1 (stereo unspecified)	?
CCOC(=O)N1CCN(C(=O)c2ccccc2NC(=O)c2ccc(F)cc2)CC1	5%
COc1ccc(-c2nnc(NC(=O)Cc3ccccc3)o2)cc1	-10%
COc1ccc(/C=C/C(=O)Nc2ccccc2)cc1OC	1%
O=C(NCCN1CCOCC1)c1cc(-c2ccccc2)on1	3%
COc1cc2c(=O)n(CCC(=O)NCC3CCCO3)c(=O)n(CC(=O)Nc3ccccc3C)c2cc1OC (stereo unspecified)	3%&9%
O=C(Nc1ccc(Oc2ccccc2)cc1)c1ccc(Cn2c(=O)[nH]c3ccsc3c2=O)cc1	-3%
Nc1ccc2c(c1)C(O)c1cccc(C(=O)O)c1-2 (stereo unspecified)	-27%
Cc1ccc(C)c(NC(=O)C2CC3c4ccccc4C2c2ccccc23)c1 (stereo unspecified)	-12%
Clc1ccc2scc(CN3CCCCC3)c2c1	-14%
Cc1c(-c2cccc(Cl)c2)nc2ccccc2c1C(=O)OCC(=O)Nc1ccc2c(c1)OCO2	-23%
Cc1c(CC(=O)NCc2ccccc2Cl)c(=O)oc2cc(O)ccc12	8%
CCC(C)(C)NC(=O)CN(C(=O)CCC(=O)Nc1nccs1)c1cccc(C)c1C	5%
COC(=O)c1ccc(N2NC(=O)/C(=C/c3cc(OC)c(OC)c(OC)c3)C2=O)cc1	71µM*
O=S(=O)(Nc1ccc(Cl)cn1)c1ccc2c(c1)OCCO2	16%
CCOC(=O)C1C(=O)CC(C)(O)C(C(=O)OCC)C1c1ccccc1OC (stereo unspecified)	-2%
O=[N+]([O-])c1cc(C(F)(F)F)ccc1N1CCN(S(=O)(=O)c2ccc3ccccc3c2)CC1	10%
Cc1ccc(C)c2sc(NC(=O)c3nc4ccccc4s3)nc12	-4%
Cc1c(Cl)ccc2c(C(=O)O)cc(-c3ccccc3)nc12	-18%
O=C(CN1CCOCC1)NNC(=O)c1ccc([N+](=O)[O-])cc1	22%
CNc1ncnc2ccc(-c3ccc4c(c3)OCO4)cc12	?
O=C1C(=O)N(CCN2CCOCC2)C(c2ccccn2)/C1=C(/O)c1ccc(Cl)cc1 (stereo unspecified)	-10%
O=C(Nc1cc([N+](=O)[O-])ccc1C(=O)NCCN1CCOCC1)c1ccccc1	3%
Cc1noc(C)c1NC(=O)N(C)C[C@H]1Oc2ccc(NC(=O)NC3CCCCC3)cc2C(=O)N([C@H](C)CO)C[C@@H]1C	-11%
COc1ccc(NC2CCCN(C(=O)C3(C)CCCCC3)C2)cc1OC (stereo unspecified)	-11%
COc1ccc(CCn2c(=O)c3cccnc3n(CC(=O)Nc3c(C)cc(C)cc3C)c2=O)cc1OC	-9%
Cc1ccc(S(=O)(=O)N(CC(=O)N/N=C/c2ccccc2C(=O)O)c2cc(Cl)cc(Cl)c2)cc1	-20%
Cc1cc(N2CCCCC2)nc(SCC(=O)c2ccccc2)n1	-14%
Cc1cc(C)c2nc(N3CCC(C(=O)NCc4cccnc4)CC3)sc2c1	-4%
CCOC(=O)C(CCSC)Nc1nc(Cl)nc(Nc2ccc(Cl)cc2)n1 (stereo unspecified)	-6%
Cc1nonc1OCCNc1ccc([N+](=O)[O-])cc1[N+](=O)[O-]	-2%
COc1cccc(C(=O)Nc2nc(-c3nnn(-c4cc(C)ccc4C)c3C)ns2)c1	6%
Cc1ccc(Cl)cc1N1CCN(S(=O)(=O)c2c(C(=O)N3CCOCC3)c(C)n(C)c2C)CC1	-1%
CCCN1CCN(CCCNC(=O)c2ccc3nc(Cc4ccccc4)oc3c2)CC1	5%
C=CC[C@@H](Cc1ccc(F)cc1)C(=O)OC[C@H]1CCCN1C(=O)[C@@H](CC=C)CC(=O)N(CCO)Cc1ccccc1	11%
O=C(Cn1cc(C(=O)C2CC2)c2ccccc21)NCc1ccc2c(c1)OCO2	-1%
CC(C)(C)OC(=O)N[C@@H](C(=O)OC(C)(C)C)c1ccc(C(F)(F)F)cc1	-1%
O=C1CCCN1c1ccc(CNS(=O)(=O)c2ccc(F)cc2)cc1	2%
COc1cccc(-c2noc(-c3ccc(Br)o3)n2)c1	1%
Cc1sc(NC(=O)c2ccco2)c(CN2CCN(c3ccc(F)cc3)CC2)c1C	3%
Cn1cc(-c2cccc(C(F)(F)F)c2)cc(C#N)c1=O	-4%
COc1cc(O)ccc1C(=O)CCc1ccc(O)cc1	18%
CCc1cccc(C)c1NC(=O)CSc1nnc(C)o1	4%
CCOC(=O)C1=C(CC)Nc2ccccc2N=C1NC(=O)c1ccc(S(=O)(=O)N2CCCC2)cc1	4%
CCc1nnc(NC(=O)c2ccc(S(=O)(=O)N(CC(C)C)CC(C)C)cc2)o1	-20%
COc1ccccc1NC(=O)Nc1cc(C(C)(C)C)nn1C	5%
CC(=O)c1cccc(N2C(=NC(=O)COc3ccccc3)SC3CS(=O)(=O)CC32)c1 (stereo unspecified)	?
O=C1CC(c2ccccc2)Sc2ccccc2N1Cc1ccc(F)cc1 (stereo unspecified)	-23%
O=C(O)c1cc2c(cc1NC(=O)c1c(F)cccc1Cl)OCCCO2	-9%
COc1ccc(OC)c(S(=O)(=O)N2CCC(C(=O)NC(C)c3ccccc3)CC2)c1 (stereo unspecified)	3%
NC1=NC[C@H](Cc2ccc(O)cc2)N1CCCCC1CCCCC1	-1%
O=C(Cc1ccc(NC2=NC3CS(=O)(=O)CC3S2)cc1)Nc1ccc(F)cc1 (stereo unspecified)	-23%
CC(=O)c1ccc(S(=O)(=O)Nc2ccc(Cl)c(S(=O)(=O)N3CCCC3)c2)cc1	-10%
Cc1nc(P(=O)(c2ccccc2)c2ccccc2)c(N2CCOCC2)o1	-16%

The results go on.
smiles	VDR inhibitor
CCCOc1ccc(N2CC(C(=O)Nc3ccc4c(c3)OCO4)CC2=O)cc1 (stereo unspecified)	-12%
C=CCn1c(CCn2c3ccccc3c3ccccc32)n[nH]c1=S	-2%
CC(NC(=O)/C(C#N)=C1\N=C(NC(=O)c2ccco2)c2ccccc21)c1ccccc1 (stereo unspecified)	2%
COc1ccc(-c2nc(CSCC(=O)NCc3ccco3)c(C)o2)cc1	-13%
Nc1nonc1-n1nnc(C(=O)N/N=C\c2cccc(Cl)c2)c1CN1CCOCC1	-11%
COc1cc2c(cc1OC)CN(CC(=O)Nc1cccc([N+](=O)[O-])c1)CC2	-17%
Cc1ccc(NC(=O)COC(=O)c2cc(C)nc3ccccc23)c([N+](=O)[O-])c1	-10%
CN1C(=O)CC(N2CCN(C(=O)CN3CCCC3)CC2)C1=O (stereo unspecified)	2%
COc1cccc(-n2c(SC)nnc2-c2c[nH]c3ccccc23)c1	-3%
Cc1occc1C(=O)NNC(=O)Nc1ccc(Cl)c(Cl)c1	?
CCNC(=S)N1CCNC(=O)C1CC(=O)OC (stereo unspecified)	-22%
CCOCCCNC(=O)C(c1ccc(OC)cc1)N(Cc1ccc2c(c1)OCO2)C(=O)c1ccccc1O (stereo unspecified)	-19%&-2%
Cc1cccc(NC(=O)c2nc[nH]c2C(=O)N[C@@H](Cc2ccccc2)C(=O)OC(C)(C)C)c1	-2%
COc1ccc(CCN(C)C(=O)c2cncc(Br)c2)cc1OC	-3%
Cc1ccc(-c2nc3ncccn3c2Nc2ccc3c(c2)OCCO3)cc1	-12%&6%
Cc1cccc(N2CCN(C(=O)COCc3cc(-c4ccc5c(c4)OCO5)on3)CC2)c1C	-5%&4%
Cc1cc(C)cc(NS(=O)(=O)c2ccc3c(c2)OCC(C(=O)N2CCCC2)O3)c1 (stereo unspecified)	-2%
O=[N+]([O-])c1cc(C(F)(F)F)ccc1NCCc1ccccn1	-12%
CN(C)C(CNC(=O)c1ccc(S(=O)(=O)NCc2ccco2)cc1)c1ccccc1 (stereo unspecified)	-12%
CCn1c(=S)[nH]c2sc3c(c2c1=O)CCCC3	?

In the list so far, two have bromine.
smiles	VDR inhibitor
COc1cccc(-c2noc(-c3ccc(Br)o3)n2)c1	1%
COc1ccc(CCN(C)C(=O)c2cncc(Br)c2)cc1OC	-3%

Following part:
smiles	VDR inhibitor
COc1ccc(C2=NO[C@@H]3C(=O)N(c4ccc5c(c4)OCCO5)C(=O)[C@H]23)cc1OC	5%
O=C(COc1ncnc2ccccc12)NCCC1=CCCCC1	2%
CCOC(=O)c1ccc(NC(=O)c2cc(C)nn2-c2ccccc2)cc1	8%
Cn1c(SCCCC(=O)c2ccc(Br)cc2)nnc1-c1ccncc1	11%
Cc1ccc(S(=O)(=O)N2CCOCC2)cc1C(=O)OCC(=O)c1c(N)n(C)c(=O)n(C)c1=O	18%
COc1ccc(NC(=O)N(C)C[C@H]2Oc3ccc(NC(=O)CCC(F)(F)F)cc3C(=O)N([C@H](C)CO)C[C@@H]2C)cc1	-2%
O=C(NC1CCN(Cc2ccc(Cl)c(Cl)c2)CC1)c1ccccc1	-17%
Cc1ccc(NCc2cc3cc4c(cc3n(CC(=O)Nc3ccc(F)cc3F)c2=O)OCCO4)cc1	-15%
CCN(CC)c1ccc(NC(=O)c2cc3ccccc3o2)c(C)c1	11%
CC/C(=N\NC(=O)c1c(C)nc2ccccn12)c1ccc(Cl)cc1	-3%
CCc1ccc(-c2nc(SCC(=O)N3CCOCC3)n[nH]2)cc1	11%
Cc1nn2c(-c3ccccc3)cc(-c3ccccc3)nc2c1-c1ccc(Cl)cc1	1%
C=CCCC(=O)Nc1ccc(Br)cn1	-1%
COc1ccc(Cn2cc(C(=O)c3ccc(OC)cc3)c(=O)c3cc4c(cc32)OCCO4)cc1	3%
Cc1ccc(CN2CCCn3nc(C(=O)NCCc4cccc(C)c4)cc3C2=O)cc1	-4%
Cc1occc1C(=O)N1CCCC(N2CCN(c3ccccc3F)CC2)C1 (stereo unspecified)	-3%
COc1ccc(NS(=O)(=O)c2cc(NC(=O)Cc3n[nH]c(=O)c4ccccc34)ccc2OC)cc1	6%
Cc1ccc(NC(=O)C2CC(O)CN2C(=O)Oc2ccccc2)c(C)c1 (stereo unspecified)	10%
COc1cc(CO)ccc1OCc1nnnn1-c1ccc(C)cc1	?
CCCCOc1ccccc1NC(=O)CC1Sc2ccccc2NC1=O (stereo unspecified)	-17%
COc1cc(C(=O)OCC(=O)Nc2ccc(OC(F)F)cc2)cc(OC)c1OC	28%
CCOC(=O)c1c(NC(=O)c2cccs2)sc(C)c1CC	3%
O=c1oc2c3c(ccc2c2ccccc12)OCN(Cc1ccc(Cl)cc1)C3	0%
Cc1cc2c(=O)n(C)c(SCC(=O)Nc3cccc(O)c3)nc2s1	-14%
COc1cc([N+](=O)[O-])ccc1NC(=O)CCCOc1ccc(C)cc1	9%
CCOc1ccc(C(=O)Nc2ccc3nc(N4CCN(CC)CC4)cc(C)c3c2)cc1	-3%
CCc1nc(NCCc2ccccn2)c2nnn(Cc3ccccc3F)c2n1	-12%
Cc1cc(C)c(C#N)c(Nc2ccccc2C)n1	-2%
COc1cc(NC(=O)CSc2nc3[nH]ncc3c(=O)n2-c2ccc(Cl)cc2)cc(OC)c1	-26%
Cc1cc(=O)oc2cc(NC(=O)CC(N)C(=O)O)ccc12 (stereo unspecified)	3%
Cc1ccc(NCc2ccccc2)cc1	-13%
CCc1ccc(-n2nc(C)c3c(C)cc(=O)n(CC(=O)Nc4ccc(F)cc4C)c32)cc1	2%
CCC[C@@H]1Cc2ccccc2N1C(C)=O	-7%
COc1ccc(-c2csc(NC(C)c3nc4cc(C(F)(F)F)ccc4n3CCOCCO)n2)cc1 (stereo unspecified)	-15%
Cc1nn(-c2ccc(F)cc2)c(N)c1C1(O)C(=O)Nc2ccccc21 (stereo unspecified)	12%
COc1ccc(-n2c(=O)[nH]c3cc(C(=O)NCCc4ccc(Cl)cc4)ccc3c2=O)cc1OC	7%&-21%
O=C(COc1ccccc1)NNC1=NS(=O)(=O)c2ccccc21	1%
Cc1[nH]c(C)c(S(=O)(=O)NCCc2ccc(S(N)(=O)=O)cc2)c1C(=O)N1CCCC1	-21%
Cc1ccc(C(=O)CSc2nnc(COc3cc(C)cc(C)c3)o2)cc1	0%
CCOc1ccc(NC(=O)Cn2cnc3c(oc4ccccc43)c2=O)cc1	-1%
CCN1CCN(C(=O)C2CCN(S(=O)(=O)c3cccc4cccnc34)CC2)CC1	4%
Cc1cc(C)c(Nc2nc3ccccc3n3c(C)nnc23)c(C)c1	6%
CCOc1cc(C=O)ccc1OCCSc1ccc(C)cc1	-1%

Some of the entries above, set out differently:
VDR inhibitor	SMILES
22%	O=C(CN1CCOCC1)NNC(=O)c1ccc([N+](=O)[O-])cc1
11%	Cn1c(SCCCC(=O)c2ccc(Br)cc2)nnc1-c1ccncc1
9%	COc1cc([N+](=O)[O-])ccc1NC(=O)CCCOc1ccc(C)cc1

This is a subset. The share of hits here may be higher or lower than overall.
